Calb FLC – affects C. albicans growth with fluconazole. hit rate 0.57% among 300,000. C. albicans CaCi-2 (fluconazole-resistant clinical isolate) + fluconazole, Alamar Blue growth, 48 h. growth inhibition, % (no concentration beside the values);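 active = most replicates above 75%; inconclusive = exactly half above 75%; inactive = most below 75%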;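 note: all wells also contain fluconazole at 8 µg/ml as a sub-toxic cotreatment; 0% = median of DMSO wells and 100% = median of geldanamycin control wells; wells of about 8 µL received 7.5 nL stock; the first replicate is given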
ALR inh – inhibitors of human sulfhydryl oxidase ALR | purified ALR, DTT oxidation, H2O2 HRP-luminol luminescence | hit rate 3.8% among 290,000 | P55789 | inhibition, % (test concentration not listed) | AID 485317;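 active = mean and each replicate at 75% or more; inconclusive = only one of the two met; inactive = neither met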;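 note: stock transfer was 7.5 nL into about 7.5 µL; 0% = neutral wells and 100% = wells with inactivated enzyme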
Bfl-1 A1 inh – inhibitors of the anti-apoptotic protein A1, read as caspase activation. caspase activation, % (no concentration beside the values). MEF A1-2A-BIM cells, Caspase-Glo 3/7 luminescence, 3 h; percent of clofoctol response, vehicle zero. hit rate 0.066% among 330,000;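 active = over half of replicate activation scores above 10%, or exactly half above 10 with the replicate mean above 10; inconclusive = replicate mean below 10 yet half the replicates above 10; inactive = over half of replicates below 10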;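 note: wells of about 30 µL received 50 nL stock; many hits fall short of the cut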
rRNA inh HTS – selective bacterial rRNA inhibition in E. coli; E. coli WT GFP vs humanized-ribosome RFP mutants, fluorescence, 24 h; stronger effect = lower value; DMSO median 0, no signal -100; hit rate 1.6% among 350,000; GFP signal change (wild-type ribosome), % (test concentration not listed); AID 720706;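 active = significant combined selectivity score with lowered wild-type GFP, culture density cut under 30%, mutant RFP and density less affected; inactive = any of these conditions unmet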; note: one replicate is shown; some compounds called inactive have numbers as strong as hits
Beta apoptosis – beta cell apoptosis inhibition | INS-1E cytokine-induced death, ATP luminescence, 48 h; percent of positive-control rescue, neutral wells zero | protection from apoptosis, % (test concentration not listed) | hit rate 0.8% among 300,000 | AID 435005;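 active = all replicates at 75% or more, or half of them and the mean; inconclusive = half reach 75% but not the mean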;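 note: 0% = cytokine-treated negative control wells and 100% = positive control rescue; higher means more ATP so stronger rescue from cytokine killing; wells of about 40 µL received 100 nL stock; the first replicate is given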
LANA-H2B inh – blocks KSHV LANA binding to histone H2A/H2B | cell-free LANA-H2A/H2B peptide, fluorescence polarization | AID 2629 | hit rate 0.6% among 320,000 | inhibition, % (concentration not given with the values); in the data active = inhibition mostly above about 10%, no sharp cut-off; inactive = mostly below about 6.7%;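 note: stock transfer was 7.5 nL into about 10 µL; 0% = median of vehicle wells and 100% = median of positive control wells; one replicate is shown; the record names a cut of 25% in any replicate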
Target sequence (Q9QR71 whole entry, looked up): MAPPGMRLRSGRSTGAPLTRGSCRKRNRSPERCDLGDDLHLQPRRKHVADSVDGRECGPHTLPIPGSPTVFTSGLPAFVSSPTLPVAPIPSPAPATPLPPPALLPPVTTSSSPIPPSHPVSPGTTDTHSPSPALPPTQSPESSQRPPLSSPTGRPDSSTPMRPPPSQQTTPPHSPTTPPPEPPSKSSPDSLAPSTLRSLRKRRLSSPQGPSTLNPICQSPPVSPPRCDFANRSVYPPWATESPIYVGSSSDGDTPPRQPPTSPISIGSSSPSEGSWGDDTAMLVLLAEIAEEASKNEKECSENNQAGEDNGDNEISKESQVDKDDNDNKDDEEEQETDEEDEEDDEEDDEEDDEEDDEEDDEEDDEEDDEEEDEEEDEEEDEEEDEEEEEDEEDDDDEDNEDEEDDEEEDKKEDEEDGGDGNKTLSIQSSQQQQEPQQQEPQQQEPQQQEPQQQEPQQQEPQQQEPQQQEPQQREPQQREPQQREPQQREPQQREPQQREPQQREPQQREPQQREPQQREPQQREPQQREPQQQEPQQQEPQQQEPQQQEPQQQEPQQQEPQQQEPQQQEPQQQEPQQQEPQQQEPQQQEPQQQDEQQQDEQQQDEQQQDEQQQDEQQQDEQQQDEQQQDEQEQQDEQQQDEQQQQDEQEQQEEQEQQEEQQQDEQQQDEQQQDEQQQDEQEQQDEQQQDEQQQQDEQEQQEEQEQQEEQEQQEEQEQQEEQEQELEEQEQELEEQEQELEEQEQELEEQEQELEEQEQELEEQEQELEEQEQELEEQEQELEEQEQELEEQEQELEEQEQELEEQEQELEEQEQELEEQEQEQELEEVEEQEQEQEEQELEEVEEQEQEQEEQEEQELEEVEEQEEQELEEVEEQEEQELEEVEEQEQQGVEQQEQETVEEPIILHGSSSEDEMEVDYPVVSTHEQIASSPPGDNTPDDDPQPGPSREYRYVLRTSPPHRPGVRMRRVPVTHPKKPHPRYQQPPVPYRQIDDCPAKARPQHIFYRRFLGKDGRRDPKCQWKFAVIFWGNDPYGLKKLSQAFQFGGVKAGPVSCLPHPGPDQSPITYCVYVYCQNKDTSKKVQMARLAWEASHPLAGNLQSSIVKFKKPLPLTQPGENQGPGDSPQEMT
T cruzi repl – T. cruzi replication inhibition; T. cruzi beta-gal in NIH3T3, luminescence, 90 h; AID 1885; inhibition, % (test concentration not listed); hit rate 1.4% among 300,000;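 active = mean inhibition across valid replicates above about 55%, limit read from the data; inconclusive = mean below that limit but half or more replicates reach it; inactive = mean below it, under half of replicates reach it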;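 note: signal also drops with host cell toxicity which is not excluded here; 0% = plate median of DMSO wells and 100% = zero luminescence signal; higher percent means less beta-gal luminescence so fewer parasites; stock transfer was 50 nL into about 50 µL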
B2AR ag – human beta-2 adrenergic receptor agonism by FAP; Am2.2-beta2AR cells, FAP receptor internalization, flow cytometry; reference of the scale not given here; response, % (test concentration not listed); AID 504454; P07550; hit rate 0.43% among 340,000;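 active = response above a set limit, near 3 SD of response in nonfluorescent compounds, cut at about 42% in these data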;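 note: stock transfer was 100 nL into about 11 µL; a reference agonist was the positive control; negative values mostly stem from fluorescent compounds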
rRNA inh HTS OD600 – second read-out of rRNA inh HTS, no call of its own (marks repeat the call); OD600 change, %; measured here: OD600 growth;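 optical density of the mix in the first replicate; 0 = DMSO median and -100 = no signal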
rRNA inh HTS RFP – recorded beside rRNA inh HTS, whose call it bears; RFP signal change, %; measured here: RFP humanized mutant strains;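 first replicate; 0 = DMSO median and -100 = no signal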
* marks the source's active call; other numbers are inactive results; ? = inconclusive; . = not tested or not shown. These rows are one share of the data; count on the stated rates, not on these rows.

SMILES	Calb FLC	ALR inh	Bfl-1 A1 inh	rRNA inh HTS	rRNA inh HTS OD600	rRNA inh HTS RFP	Beta apoptosis	LANA-H2B inh	T cruzi repl	B2AR ag
COC(=O)c1c(/N=C/NOCc2ccc(Cl)cc2)sc2c1CCN(c1ncc(C(F)(F)F)cc1Cl)C2	-4.7	-0.3	?	.	.	.	3.7	2.1	-13.4	0.5
CCC(C)Sc1nc2c(c(=O)[nH]c(=O)n2C)n1C (configuration not stated)	7.0	-10.3	0.0	.	.	.	3.2	3.8	-16.3	0.4
COc1ccc(OC)c(/C=C/C(=O)N(C)CC(=O)Nc2cc(C)ccc2C)c1	-0.9	-2.8	3.7	.	.	.	-9.4	0.5	-12.1	-1.3
CS(=O)(=O)N1CCN(c2ccc([N+](=O)[O-])c(NCc3ccc(Cl)cc3)c2)CC1	17.2	-7.9	1.1	8.1	14.0	-1.6	13.4	0.9	21.0	5.7
CCCc1cc(C(=O)N2CCCC(N3CCN(c4ccccc4C)CC3)C2)n(C)n1 (configuration not stated)	-3.7	15.9	0.3	0.2	-5.5	2.0	-2.7	-2.9	23.3	-0.1
O=C(O)CCC(=O)c1c[nH]c2ccccc12	1.9	-7.7	0.7	.	.	.	-3.4	6.2	-12.9	-3.3
CC(=O)Nc1ccc(CNC(=O)C[N+]2(C)CCOCC2)cc1	-15.9	-1.8	0.9	12.7	11.4	0.1	-2.8	-0.7	-13.8	-4.5
COc1ccccc1NC(=O)C1=C(C)NC2=C(C(=O)CCC2)C1c1ccc2c(c1)OCO2 (configuration not stated)	?	-16.0	-0.1	-13.4	-14.8	0.5	-1.5	-0.6	14.9	-26.1
O=c1ccc(-c2ccc(S(=O)(=O)NCC3CCN(Cc4ccccc4F)CC3)s2)n[nH]1	-4.9	-6.5	-0.3	-5.1	-0.8	-3.0	2.1	-7.1	7.9	15.5
O=C(Nc1ccc(Nc2ccccc2)cc1)c1ccc(Cl)cc1[N+](=O)[O-]	13.6	26.5	-0.2	-27.4*	0.9*	-1.4*	.	-6.9	.	16.8
CCOC(=O)c1cc2occc2n1CC(=O)N1CCCc2ccccc21	9.6	4.4	-0.5	.	.	.	0.1	3.6	9.2	-1.4
CCN(CC)CCNC(=O)c1sc2nc(-c3ccccc3)cn2c1C	-1.5	71.8	2.1	-5.4	2.4	3.1	0.9	-5.9	-6.4	-0.9
CCOC(=O)CCc1cccc2c1CCC2=O	-1.1	2.2	0.4	.	.	.	-3.7	0.3	-7.4	-1.7
N#Cc1ccccc1S(=O)(=O)N1CCC(C(=O)NCc2ccccc2CN2CCCC2)CC1	.	0.6	-0.4	4.8	7.3	0.5	-2.1	0.5	.	-5.1
COc1cc(/C=N/NC(=O)C2c3ccccc3Oc3ccccc32)ccc1O	3.1	0.4	0.4	.	.	.	1.6	0.7	7.4	-2.7
COCCNc1nc2c(S(=O)(=O)c3cc(C)ccc3C)nnn2c2ccccc12	-1.5	.	-0.3	10.3	8.9	0.1	4.5	-3.5	30.2	-6.2
Cc1ccc(C)c(NC(=O)Cn2cnc3c(oc4ccccc43)c2=O)c1	-16.5	-1.1	-0.3	18.0	8.4	-1.2	-6.7	-1.0	-2.9	3.6
COc1ccc(N=C2NC(=O)CS2)c([N+](=O)[O-])c1	-1.2	-6.2	0.0	-4.9	-1.7	-2.5	-4.7	-0.5	1.9	-1.9
COc1ccc2c(c1)N(C)/C(=C1/SC(=S)N(NC(C)=O)C1=O)S2	1.6	-2.9	0.4	4.0	6.3	1.0	.	-9.0	-4.1	8.3
Cc1cccc(N2CCN(C(=O)CSCc3c(C)noc3C)CC2)c1C	20.6	1.8	0.2	.	.	.	.	6.8	-5.9	-1.2
Cc1ccc(NS(=O)(=O)c2ccc3c(c2)CCN3C(=O)CCC(=O)O)cc1Cl	2.4	.	0.5	0.3	-5.9	-2.1	-9.8	2.4	2.3	-0.3
COc1cccc(-n2cnnc2SC(C)C(=O)NC2CCCC2)c1 (configuration not stated)	.	-3.9	-0.2	4.0	1.4	-0.9	-2.0	0.9	.	-6.0
COc1ccc(C)c2sc(=NC(=O)C(C)C)n(C)c12	3.4	.	0.5	0.3	-2.9	-9.5	-4.9	1.1	5.7	-11.6
CC(=O)Nc1ccc(NC(=O)C(C)n2nc(C)c([N+](=O)[O-])c2C)cc1 (configuration not stated)	0.8	-12.7	1.4	6.9	3.2	-3.8	-3.3	2.6	-1.1	1.5
COc1ccc(-c2nc(CS(=O)CC(=O)NCc3cccnc3)c(C)o2)cc1OC (configuration not stated)	4.5	99.2*	0.2	1.1	-5.5	7.3	3.0	-6.8	4.8	2.1
Cc1ccc(C(=O)Nc2cccc(C(=O)NC3CCCC3)c2)cc1	3.1	-9.1	-0.2	-3.4	-2.5	-4.6	.	2.1	7.9	4.3
CCN(c1ccc(OCC(=O)OCC(=O)Nc2ccc(F)c(F)c2F)cc1)S(=O)(=O)c1ccccc1	.	-31.7	0.9	.	.	.	-2.4	2.4	.	1.4
Cn1c(=O)cc(OCC(=O)NCCCN2CCN(Cc3ccccc3)CC2)c2ccccc21	-10.3	-17.3	-0.6	2.5	6.3	-1.8	3.6	-4.0	10.8	2.2
O=C1COc2ccc(-c3csc(=Nc4ccc(OC(F)F)cc4)n3CC3CCCO3)cc2N1 (configuration not stated)	-0.2	19.0	0.2	.	.	.	3.3	-4.4	24.6	5.3
Cc1[nH]c2ccccc2c1/C=N/NC(=O)CCC(=O)Nc1ccccc1	-2.4	-3.1	0.2	1.7	-4.5	-0.6	-6.9	-3.9	-18.5	0.3
O=C(c1cccc([N+](=O)[O-])c1)N1CCc2ccccc21	-1.5	.	-0.1	8.2	21.1	5.0	-4.4	3.2	2.6	0.9
Cc1ccn2c(/C=N/OCc3ccc(F)cc3)c(-c3ccc(Cl)cc3)nc2c1	24.8	.	-1.1	.	.	.	14.2	1.6	26.1	-16.0
O=[N+]([O-])c1ccc(C(O)CN2CCN(C/C=C/c3ccccc3)CC2)cc1 (configuration not stated)	-6.0	-11.5	0.2	2.0	-3.7	-0.2	-6.6	-0.8	25.8	-0.9
CCN(CC)CCCNC(=O)c1ccc(N2CCCCC2)c(NS(=O)(=O)c2ccc(C)cc2)c1	0.8	30.6	-0.1	8.2	7.2	3.0	3.5	-1.2	22.0	0.0
Cc1ccc(NC(=O)c2c(C)nc3sc(C(=O)NC4CCCC4)c(N)c3c2-c2ccco2)c(C)c1	9.7	-5.5	-0.2	3.8	0.4	3.5	-1.0	-2.1	6.4	-23.7
COc1ccc(C2CC(=O)C3=C(C2)Nc2ncnn2C3c2ccccc2)cc1 (configuration not stated)	0.5	4.4	1.1	.	.	.	1.3	0.8	-11.0	-3.0
Cc1ccc(S(=O)(=O)N2CCOCC2)cc1C(=O)OCC(=O)N1CCCC1=O	.	-0.5	0.6	18.3	10.7	6.4	-3.1	5.1	.	-3.1
COc1ccc(N2CCN(CC(O)COc3ccc(C)c(C)c3)CC2)cc1 (configuration not stated)	-19.1	97.5*	1.4	-3.1	-6.1	1.5	-9.1	-3.9	2.6	1.5
CCn1c(CNC(=O)c2ccc(OC)c(OC)c2)nnc1SCC(=O)Nc1ccccc1	8.7	-2.5	0.4	2.5	-2.1	-4.7	-1.2	-1.0	-18.5	0.9
O=C(O)c1sc2cc(C(F)(F)F)cnc2c1-c1ccccc1	?	-4.9	-0.2	.	.	.	.	-2.1	-20.4	5.7
Cc1cc(N2CCOCC2)n2cc(-c3ccccc3)nc2n1	-19.4	40.5	-0.7	21.6	12.2	1.0	2.1	1.4	6.9	-5.9
Cn1nc(C(=O)OCC(=O)NC2CCS(=O)(=O)C2)c2ccccc2c1=O (configuration not stated)	4.7	-1.1	-0.2	15.5	3.4	1.8	-4.2	-1.2	-3.5	-1.9
Cc1cc(C)cc(N(CC(=O)NC2CCCC2)S(=O)(=O)c2c(C)[nH]c(=O)[nH]c2=O)c1	10.6	-11.9	0.4	5.8	-0.4	-6.2	0.6	-2.5	-4.2	1.9
COc1cccc(CN2C(=O)CCC2(C)C(=O)NCCc2ccc(OC)c(OC)c2)c1 (configuration not stated)	-2.5	-7.8	0.0	9.8	12.4	5.2	-12.8	-6.2	2.4	-14.5
O=C(Nc1ccccc1Cl)N1CCN(Cc2ccc3c(c2)OCO3)CC1	-46.1	-1.2	0.1	1.7	-7.4	1.3	1.2	0.0	15.0	-1.3
O=C(/C=C/c1ccccc1Cl)Nc1ccc(S(=O)(=O)Nc2ncccn2)cc1	-47.4	-1.9	0.2	20.5	12.2	2.4	4.8	-2.1	-8.2	3.6
c1ccc(-c2csc3ncnc(NCc4ccccn4)c23)cc1	2.9	-1.7	0.0	.	.	.	22.0	-0.5	8.7	-131.4
CN(CC(=O)Nc1ccc(F)c(F)c1F)C(=O)c1ccc(=O)[nH]c1	11.5	-0.5	0.5	19.4	3.9	-1.3	3.9	2.8	-4.5	1.5
COc1cccc(NC(=S)N(Cc2ccc(Cl)cc2)Cc2ccc(C(=O)O)cc2)c1	?	.	0.8	-32.2*	-24.8*	0.3*	-5.6	4.9	-8.5	-0.7
COC(=O)c1sc2ccc(C)cc2c1C(=O)OC	-31.6	-17.0	0.4	.	.	.	-3.0	2.1	-3.7	-0.2
NS(=O)(=O)c1ccc(CCNC(=O)CCC(=O)c2cccs2)cc1	.	-2.6	0.8	0.5	11.9	1.9	0.6	1.6	.	4.7

Exported bar-delimited: six of the compounds above
SMILES | Calb FLC | ALR inh | Bfl-1 A1 inh | rRNA inh HTS | rRNA inh HTS OD600 | rRNA inh HTS RFP | Beta apoptosis | LANA-H2B inh | T cruzi repl | B2AR ag
Cn1nc(C(=O)OCC(=O)NC2CCS(=O)(=O)C2)c2ccccc2c1=O (configuration not stated) | 4.7 | -1.1 | -0.2 | 15.5 | 3.4 | 1.8 | -4.2 | -1.2 | -3.5 | -1.9
Cc1cc(C)cc(N(CC(=O)NC2CCCC2)S(=O)(=O)c2c(C)[nH]c(=O)[nH]c2=O)c1 | 10.6 | -11.9 | 0.4 | 5.8 | -0.4 | -6.2 | 0.6 | -2.5 | -4.2 | 1.9
COc1cccc(CN2C(=O)CCC2(C)C(=O)NCCc2ccc(OC)c(OC)c2)c1 (configuration not stated) | -2.5 | -7.8 | 0.0 | 9.8 | 12.4 | 5.2 | -12.8 | -6.2 | 2.4 | -14.5
O=C(Nc1ccccc1Cl)N1CCN(Cc2ccc3c(c2)OCO3)CC1 | -46.1 | -1.2 | 0.1 | 1.7 | -7.4 | 1.3 | 1.2 | 0.0 | 15.0 | -1.3
O=C(/C=C/c1ccccc1Cl)Nc1ccc(S(=O)(=O)Nc2ncccn2)cc1 | -47.4 | -1.9 | 0.2 | 20.5 | 12.2 | 2.4 | 4.8 | -2.1 | -8.2 | 3.6
c1ccc(-c2csc3ncnc(NCc4ccccn4)c23)cc1 | 2.9 | -1.7 | 0.0 | . | . | . | 22.0 | -0.5 | 8.7 | -131.4
